Screening data as filed in PubChem BioAssay.
A1 inhib = A1 inhibition. AID 2241. actives 0.51% (n = 21,000). MEF A1-2A-BIM cells, caspase-Glo luminescence, 3 h; percent of clofoctol signal, DMSO as zero. caspase activation, % (no concentration beside the values);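 active = most replicate scores above 10, or exactly half above 10 with mean activity above 10; inconclusive = mean activity below 10 while half the replicates exceed 10; inactive = most replicate scores below 10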;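 note: effector caspase 3 and 7 activity cleaving a DEVD luciferin substrate; 50 nL library stock added to about 30 µL; numbers are from one replicate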
BJeLR viability = lowers viability of BJeLR cells. viability loss activity score, % (test concentration not listed). AID 2275. actives 0.64% (n = 30,000). BJeLR fibroblasts viability, CellTiterGlo ATP luminescence, 48 h; HRASV12, hTERT and SV40 LT/ST transformed; in the data active = viability loss activity score above about 50%; inconclusive = no clear call, values can overlap the other calls; inactive = below about 35%; about a fifth of its hits are not listed in these tables;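 note: higher score means fewer live cells and less ATP luminescence; stock transfer was 50 or 100 nL into about 30 µL; 0% = vehicle wells and 100% = a reference killing control; one replicate is shown; the record names a cut of 85%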
* = called active by the depositor; ? = inconclusive; · = no result given.

Results follow in this order: BJeLR viability	A1 inhib
- C[C@@H]1CN([C@@H](C)CO)C(=O)c2cc(NS(=O)(=O)c3ccccc3)ccc2O[C@@H]1CN(C)C(=O)NC1CCCCC1
  -0.5	0.6
- CNC(=O)Nc1nc2cccnc2s1
  -1.5	-0.7
- CCOc1ccc(N(CC)C(=O)COc2cc(=O)n(CC)c3ccccc23)cc1
  -0.3	·
- C[C@H](CO)N1C[C@H](C)[C@H](CN(C)S(=O)(=O)c2cn(C)cn2)Oc2c(NC(=O)Nc3ccc(F)cc3)cccc2C1=O
  3.8	·
- COc1ccc(-c2c(C#N)c(SCC(=O)c3ccccc3)nc3c2C(=O)CC(C)(C)C3)cc1
  0.4	0.0
- COC(=O)c1cc(NC(=O)N2c3ccccc3Sc3ccccc32)cc(C(=O)OC)c1
  -7.5	-0.2
- Cc1ccc(C(=O)/C=c2\[nH]c(=O)/c(=C/c3cccnc3)s2)cc1
  1.2	·
- COC(=O)c1cc2oc3ccccc3c2n1CC(=O)N(C)c1ccccc1
  0.9	-0.1
- O=C(O)c1ccc(CSc2nnc(COc3ccc(Cl)cc3Cl)o2)cc1
  -3.1	0.1
- C[C@@H]1CN([C@H](C)CO)C(=O)c2cccc(NC(=O)c3cnccn3)c2O[C@H]1CN(C)Cc1ccc(C(=O)O)cc1
  -0.7	·
- C=CCn1c(=S)sc2c(Sc3nnc(-c4ccco4)o3)ncnc21
  63.1*	?
- O=C(CSc1nc2c(c(=O)n1CCc1ccccc1)SCC2)Nc1nccs1
  -4.5	0.1
- COC(=O)c1ccc(CSc2nc3ccccc3s2)o1
  1.9	-2.4
- c1ccc(-c2csc(-c3ccc4c(c3)OCCO4)n2)cc1
  1.3	-3.3
- C[C@H]1CN([C@@H](C)CO)C(=O)c2cccc(NC(=O)NC3CCCCC3)c2O[C@@H]1CN(C)Cc1ccc(C(=O)O)cc1
  -0.4	·
- Cc1c(Cc2ccccc2)c(=O)oc2cc(OC3CCCCC3=O)ccc12 (stereo not drawn)
  10.4	-0.7
- O=C(Nc1ccc(Cl)cc1)N1N=C2c3ccccc3CCC2C1c1cccs1 (stereo not drawn)
  15.0	-0.1
- CC(=O)Nc1cc(C(=O)NCCN2C(C)CCCC2C)ccc1Sc1ccc(C)cc1 (stereo not drawn)
  6.7	0.7
- CN(C)c1nc(C(C)(C)C)cc2c1C(=O)NC2=O
  3.8	0.0
- Cc1noc(C)c1NC(=O)Nc1cccc2c1O[C@H](CN(C)C(=O)NC(C)C)[C@H](C)CN([C@@H](C)CO)C2=O
  -9.2	·
- Cc1noc(-c2ccccc2)c1NC(=O)N1CCOCC1
  0.9	0.3
- C=C1C(=O)O[C@@H]2[C@H]3C(CO)=CC(=O)C3=C(C)C[C@H](OC(=O)Cc3ccc(O)cc3)[C@@H]12
  -7.7	-0.4
- Ic1ccc(N2CCN(Cc3c[nH]c4ncccc34)CC2)cc1
  -0.7	-0.6
- COC(=O)c1cc(S(=O)(=O)/C=C/c2ccccc2)c(Cl)cc1Cl
  -2.2	0.6
- C[C@@H]1CN([C@H](C)CO)C(=O)c2cc(NC(=O)Nc3cccc4ccccc34)ccc2O[C@@H]1CN(C)CC1CCCCC1
  0.3	0.2
- COc1ccc(CN(C)C[C@H]2Oc3ccc(NC(=O)Cn4cnnn4)cc3C(=O)N([C@@H](C)CO)C[C@H]2C)cc1
  -4.1	-0.5
- C[C@@H]1CN([C@@H](C)CO)C(=O)c2cc(NC(=O)Nc3cccc4ccccc34)ccc2O[C@H]1CN(C)C(=O)Nc1ccccc1
  -0.5	0.3
- Cc1ccc(NC(=O)CCn2c(=O)[nH]c3ccsc3c2=O)cc1
  -1.3	·
- C[C@H](CO)N1C[C@H](C)[C@H](CN(C)S(=O)(=O)c2cccs2)Oc2c(NC(=O)c3ccncc3)cccc2C1=O
  0.5	·
- CCCCC1=NN(C(=O)C2CC2)C(O)(C(F)(F)F)C1 (stereo not drawn)
  -1.4	0.2
- COc1cc(NC(=O)COc2cc(C)c(Cl)c(C)c2)ccc1NC(=O)c1cc2ccccc2o1
  7.0	16.5*
- Cc1ccccc1-c1nc(CN2CCC(C(=O)NCc3ccco3)CC2)c(C)o1
  -7.9	·
- C[C@H]1CN([C@@H](C)CO)C(=O)c2cc(NS(C)(=O)=O)ccc2O[C@H]1CN(C)C(=O)Nc1cccc2ccccc12
  1.5	0.4
- C[C@@H]1CN([C@@H](C)CO)C(=O)c2cc(NC(=O)CCC(F)(F)F)ccc2O[C@@H]1CN(C)Cc1ccc(Cl)c(Cl)c1
  -4.8	0.2
- Fc1ccc(C2=NN(C(=S)NCc3ccccc3)CCC2)cc1
  2.6	0.4
- C[C@@H]1CN([C@H](C)CO)C(=O)c2cccc(NC(=O)C3CC3)c2O[C@@H]1CN(C)C(=O)Nc1cccc2ccccc12
  4.9	·
- C[C@@H]1CN([C@@H](C)CO)C(=O)c2cc(NS(=O)(=O)c3ccc(Cl)cc3)ccc2O[C@H]1CN(C)Cc1ccccc1
  2.5	-0.3
- O=C(O)CCC(=O)Nc1cccc(-c2nc3ccccc3[nH]2)c1
  -2.2	-3.9
- C[C@H](CO)N1C[C@H](C)[C@H](CN(C)Cc2ccccc2)Oc2c(NS(=O)(=O)c3ccc(Cl)cc3)cccc2C1=O
  -4.0	·
- COc1ccc(NC(=O)N(C)C[C@@H]2Oc3c(NC(=O)NC(C)C)cccc3C(=O)N([C@H](C)CO)C[C@H]2C)cc1
  1.3	·
- O=C(/C=C/c1cccs1)NC(=S)NCc1ccccc1
  -3.9	0.4
- Cc1cc(C(=O)Nc2cccc3c2O[C@@H](CN(C)C(=O)Nc2c(C)noc2C)[C@H](C)CN([C@@H](C)CO)C3=O)n(C)n1
  -6.6	·
- Cc1ccc(OCCN2CCN(c3cc(C)c(C#N)c4nc5ccccc5n34)CC2)cc1
  -3.0	0.3
- CCc1cccc(NC(=O)C(CC(C)C)NC(=O)C2CCCCC2)c1 (stereo not drawn)
  1.5	·
- CSc1sc(Cl)c2c1/C(=N\O)CC(C)(C)C2
  -0.8	-0.8
- CC(=O)N(c1ccc(F)cc1)c1nc(-c2cc3ccccc3oc2=O)cs1
  0.5	-0.1
- C=CCNC(=O)/C=C/c1ccc(C(C)C)cc1
  -1.6	·
- O=C(CSc1nnnn1-c1ccccc1)N1c2ccccc2CCc2ccccc21
  3.7	0.4
- C[C@H](CO)N1C[C@H](C)[C@H](CN(C)CC2CC2)Oc2c(NS(=O)(=O)c3ccc(F)cc3)cccc2C1=O
  6.3	·
- O=C(NCCc1ccccc1)C1(S(=O)(=O)c2ccc(Cl)cc2)CC1
  5.3	·

The list goes on.
Results follow in this order: BJeLR viability	A1 inhib
- CN(C(=O)CSC1=Nc2ccccc2C2=NC(c3ccccc3)C(=O)N12)C1CCCCC1 (stereo not drawn)
  -1.1	·
- COc1cc2c(cc1O)CCC1C2CC[C@@]2(C)C1CC[C@@H]2O (stereo partly drawn)
  40.9	1.6
- c1ccc(CSc2ccc(-c3ccncc3)nn2)cc1
  0.5	0.0
- O=c1c2c3c(sc2[nH]c(=S)n1Cc1ccccc1)CCC3
  -0.8	0.1
- COC(=O)c1ccccc1NC(=O)c1ccc2c(c1)sc1nc(-c3ccc(OC)cc3)cn12
  -3.8	0.4
- CC1=C(C(=O)OCC(C)C)C(c2ccc(Cl)cc2)NC(=O)N1C (stereo not drawn)
  2.2	-0.3
- Cc1cccc(OCCn2c(-c3cccc(C)c3)nc3ccccc32)c1
  4.8	-1.4
- CSc1nc(C)nc(Sc2ccccc2)c1C#N
  -5.9	0.2
- C[C@H]1CN([C@@H](C)CO)C(=O)c2cc(NC(=O)Cn3cnnn3)ccc2O[C@H]1CN(C)C(=O)Nc1ccc(C(F)(F)F)cc1
  -4.3	-0.5
- CC(C)(C)c1ccc2c(c1)NC(=O)CO2
  2.9	0.0
- Cc1ccccc1-n1c(SCC(=O)c2ccc(Cl)cc2)nc2[nH]ncc2c1=O
  -2.1	0.7
- CC1CC(Nc2ccccc2)c2ccccc2N1S(=O)(=O)c1ccc(Br)cc1 (stereo not drawn)
  -8.5	-1.0
- COc1ccc(NC(=O)Nc2ccc3c(c2)C(=O)N([C@@H](C)CO)C[C@@H](C)[C@@H](CN(C)S(=O)(=O)c2ccc(OC)cc2)O3)cc1
  3.1	0.8
- O=S(=O)(c1ccc(-c2csc(=Nc3ccccc3)n2CCc2ccccc2)cc1)N1CCCC1
  -10.5	·
- C[C@@H]1CN([C@@H](C)CO)C(=O)c2cccc(NC(=O)c3nc4ccccc4s3)c2O[C@@H]1CN(C)S(=O)(=O)c1ccc(F)cc1
  0.0	·
- C[C@@H]1CN([C@@H](C)CO)C(=O)c2cc(NC(=O)Nc3ccc4c(c3)OCO4)ccc2O[C@H]1CN(C)Cc1ccccc1
  -1.9	0.5
- C[C@@H]1CN([C@@H](C)CO)C(=O)c2cc(NC(=O)Nc3ccc(C(F)(F)F)cc3)ccc2O[C@H]1CN(C)S(=O)(=O)c1cccs1
  -2.8	0.5
- CN1C[C@H](C(=O)N[C@]2(C)O[C@@]3(O)[C@@H]4CCCN4C(=O)[C@H](Cc4ccccc4)N3C2=O)C[C@@H]2c3cccc4[nH]cc(c34)C[C@H]21
  -4.0	0.9
- CS/C(=N\S(=O)(=O)c1ccccc1)N1CCCC1
  -0.7	-0.1
- O=S(=O)(c1ccc(C2CCCCC2)cc1)N1CCn2c(nc3ccccc32)C1
  0.1	·
- CC(C)c1nnc(NC(=O)CC(NC(=O)c2ccccc2)c2ccccc2)s1 (stereo not drawn)
  -6.5	-0.1
- C=CCNc1ncnc2c1c(-c1ccccc1)cn2-c1cccc(C)c1
  -1.5	-0.6
- COc1cc(NS(=O)(=O)c2c(C)oc3c(F)c(F)c(F)c(F)c23)cc(OC)c1OC
  2.0	1.0
- CC(C)C(NS(=O)(=O)c1cccc2nsnc12)C(=O)NCc1ccco1 (stereo not drawn)
  0.0	·
- CC(C)NC(=O)Nc1cccc2c1O[C@H](CN(C)Cc1ccc(C(=O)O)cc1)[C@H](C)CN([C@H](C)CO)C2=O
  -3.7	·
- CNC[C@@H]1Oc2c(NS(=O)(=O)c3ccc(Cl)cc3)cccc2C(=O)N([C@@H](C)CO)C[C@H]1C
  1.2	·
- C[C@@H]1CN([C@H](C)CO)C(=O)c2cccc(NC(=O)Nc3ccccc3)c2O[C@H]1CN(C)Cc1ccc(Oc2ccccc2)cc1
  4.1	·
- C[C@H](CO)N1C[C@H](C)[C@H](CN(C)C(=O)NC2CCCCC2)Oc2c(NC(=O)c3ccncc3)cccc2C1=O
  -2.1	·
- N#Cc1cc(Oc2ccc(F)cc2)c(-n2nnc3ccccc32)cc1C#N
  -2.1	-1.2
- CC(NC(=O)c1ccc(CSc2ccccc2)cc1)c1ccccc1 (stereo not drawn)
  8.9	1.2
- O=C(COc1ccc2c(-c3ccccc3)cc(=O)oc2c1)c1ccccc1
  -3.6	-0.6
- COc1cc(Cc2nnc(C(=O)NC(C)C)o2)cc(OC)c1OC
  3.4	·
- Cc1ccc(CCNC(=O)c2cc3c(=O)oc4ccc(C)cc4c3s2)cc1
  3.5	·
- C[C@@H]1CN([C@@H](C)CO)C(=O)c2cc(NC(=O)C3CC3)ccc2O[C@H]1CN(C)CC1CCCCC1
  1.0	-0.3
- CCCCn1cnc2cc(NCc3ccc(Br)cc3)ccc21
  -1.2	·
- COC(CNC(=O)c1ccc2nc(-c3ccccc3)c(-c3ccccc3)nc2c1)OC
  10.4	0.4
- CNC[C@@H]1Oc2c(NC(=O)c3nc4ccccc4s3)cccc2C(=O)N([C@H](C)CO)C[C@@H]1C
  0.7	·
- COc1ccc(NC(=O)N(C)C[C@H]2Oc3c(NS(=O)(=O)c4cn(C)cn4)cccc3C(=O)N([C@H](C)CO)C[C@H]2C)cc1
  -3.6	·
- COc1ccc(S(=O)(=O)N(C)C[C@H]2Oc3ccc(NS(C)(=O)=O)cc3C(=O)N([C@H](C)CO)C[C@@H]2C)cc1
  0.2	-0.1
- CCOC(=O)c1ccc2[nH]c3c(c2c1)CCCC3NC=O (stereo not drawn)
  -3.1	0.2
- COc1ccccc1CCNC(=O)c1ccc(COc2ccccc2Cl)o1
  -2.9	0.9
- COc1ccccc1C1CCN(S(=O)(=O)c2ccccc2Br)CC1
  1.7	-0.1
- OCc1noc(-c2ccc(Cl)c(Cl)c2)n1
  2.7	-0.6
- C[C@H](CO)N1C[C@H](C)[C@H](CN(C)S(=O)(=O)c2cn(C)cn2)Oc2c(NC(=O)Nc3cccc4ccccc34)cccc2C1=O
  1.0	·
- C[C@@H]1CN([C@H](C)CO)C(=O)c2cc(NC(=O)Nc3ccc(F)cc3)ccc2O[C@@H]1CN(C)Cc1ccc(C(=O)Nc2ccccc2N)cc1
  6.6	·
- O[C@H]1[C@H]2c3cc4c(cc3CN3CCC(=C[C@@H]1O)[C@H]23)OCO4
  63.2*	4.5

Single records, as listed above.
Listed for O[C@H]1[C@H]2c3cc4c(cc3CN3CCC(=C[C@@H]1O)[C@H]23)OCO4 = BJeLR viability = 63.2*; A1 inhib = 4.5
Listed for COc1ccccc1CCNC(=O)c1ccc(COc2ccccc2Cl)o1 = BJeLR viability = -2.9; A1 inhib = 0.9
Listed for C[C@@H]1CN([C@H](C)CO)C(=O)c2cc(NC(=O)Nc3ccc(F)cc3)ccc2O[C@@H]1CN(C)Cc1ccc(C(=O)Nc2ccccc2N)cc1 = BJeLR viability = 6.6; A1 inhib = ·

Some of the compounds tested; count on the stated rates, not on these rows.
